Assay outcomes (PubChem BioAssay)
Sfp PPTase inh – qHTS Assay for Inhibitors of Bacillus subtilis Sfp phosphopantetheinyl transferase (PPTase); 4'-phosphopantetheinyl transferase ffp (Bacillus subtilis), Q9F4F7; Biochemical Sfp PPTase activity, qHTS; Potency, µM, for inactives: max response, negative = inhibition, actives largely listed as inhibitors; actives 3.5% (n = 310,000); active = well fitted inhibition curve with a large enough effect; inconclusive = small, poorly fitted or top-dose-only effect, or another doubt; inactive = no such curve, though single readings can be large or run the other way;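 also: the enzyme is Sfp with the accession as filed and its product quenches rhodamine fluorescence; potency is read from the fitted curve at half-maximal effect; 0% = enzyme reaction without inhibitor and -100% = no enzyme wells; top concentration of the series not given in the record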
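Sfp 15 nM + cpd, 15 min RT; start w/ rhodamine-CoA 5 uM, BHQ-2-YbbR 12.5 uM (final); 50 mM Hepes pH 7.6, 10 mM MgCl2, 0.01% NP-40, 0.01% BSA; read 525/598 nm at 0 and 30 min.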
TRPV1 potentiator – HTS Assay for Compounds that Act as Potentiators of the Vanilloid Receptor 1; Transient receptor potential cation channel subfamily V member 1 (Homo sapiens), Q8NER1; potentiation, % at 8.33 µM; TRPV1-expressing cells, Fluo-8 calcium influx, capsaicin EC20 potentiation; host cell line not named in the record; control for the full effect not named in the record; actives 0.02% (n = 320,000); active means potentiation above 80%; inconclusive means 30% to 80%; inactive means below 30%; also: 0% is about no effect
Target sequence (Q8NER1 whole entry, looked up): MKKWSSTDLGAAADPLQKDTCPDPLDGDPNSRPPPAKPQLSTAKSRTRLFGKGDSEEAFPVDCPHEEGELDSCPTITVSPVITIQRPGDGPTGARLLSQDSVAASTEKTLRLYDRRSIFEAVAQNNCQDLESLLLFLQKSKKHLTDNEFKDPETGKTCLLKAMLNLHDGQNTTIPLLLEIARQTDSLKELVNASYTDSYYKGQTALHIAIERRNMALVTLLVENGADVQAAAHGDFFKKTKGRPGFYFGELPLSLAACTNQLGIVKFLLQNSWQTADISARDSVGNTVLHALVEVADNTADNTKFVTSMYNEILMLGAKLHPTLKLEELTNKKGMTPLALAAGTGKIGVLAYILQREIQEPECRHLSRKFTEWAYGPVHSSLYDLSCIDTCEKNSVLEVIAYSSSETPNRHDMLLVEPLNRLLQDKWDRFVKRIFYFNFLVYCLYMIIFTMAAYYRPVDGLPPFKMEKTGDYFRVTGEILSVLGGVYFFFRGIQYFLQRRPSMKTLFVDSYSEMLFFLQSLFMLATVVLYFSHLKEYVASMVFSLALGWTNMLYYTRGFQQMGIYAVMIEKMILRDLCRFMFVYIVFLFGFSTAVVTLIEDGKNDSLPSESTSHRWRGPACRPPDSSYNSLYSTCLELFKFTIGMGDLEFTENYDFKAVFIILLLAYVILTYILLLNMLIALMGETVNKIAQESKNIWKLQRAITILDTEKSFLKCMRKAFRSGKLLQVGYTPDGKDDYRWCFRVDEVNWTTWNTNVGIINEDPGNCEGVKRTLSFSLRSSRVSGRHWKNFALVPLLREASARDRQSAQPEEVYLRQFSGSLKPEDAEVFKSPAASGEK
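Fluo-8 calcium influx in TRPV1-expressing cells, kinetic read (ex 480/em 520 nm). Compound added and read 3 min for agonist activity, followed by capsaicin at EC20 final and 2 min further read for enhancement.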
ClpP mod – qHTS Assay for Activators of ClpP. purified B. subtilis ClpP, FRET peptide cleavage, 20 min. actives 1.9% (n = 340,000). Potency, µM (titrated, usually from 57.5 µM), without a hit: top-dose activity change, negative = active. ATP-dependent Clp protease proteolytic subunit (Bacillus subtilis (strain 168)), P80244. AID 651965, 2013; active = well fitted falling curve with a large enough effect; inconclusive = small, poorly fitted or top-dose-only effect; inactive = no such curve, though single readings can be large or run the other way; also: potency is read from the fitted curve at half-maximal effect; the source files actives as falling curves though it sought activators and does not explain the sign; nearly all actives have a fitted effect of over 65% in size; many hits overshoot -100%
Target sequence (P80244 whole entry, looked up): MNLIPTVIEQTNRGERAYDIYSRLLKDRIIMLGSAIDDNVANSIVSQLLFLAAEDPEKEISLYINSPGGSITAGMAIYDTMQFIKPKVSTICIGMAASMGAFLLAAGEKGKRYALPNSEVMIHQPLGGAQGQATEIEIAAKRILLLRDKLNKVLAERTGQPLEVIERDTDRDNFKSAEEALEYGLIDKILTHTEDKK
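Purified B. subtilis ClpP, 10 microg/mL final in Tris/HCl pH8 with KCl, BSA, glycerol and Tween-20, cleaved an Abz/nitrotyrosine-quenched decapeptide. Fluorescence (ex 320, em 430) was read at 0 and 20 min at room temperature. Delta was normalized to 5.8 microM ADEP and DMSO/no-enzyme controls.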
gsp agonist – qHTS for Agonist of gsp, the Etiologic Mutation Responsible for Fibrous Dysplasia/McCune-Albright Syndrome: qHTS. Potency, µM (doses to about 76.9 µM), inactives show at the top dose activation (cAMP increase), hits mostly activators. actives 0.13% (n = 340,000). gsp mutant cells, cAMP HTRF, 30 min; control for the full effect not named in the record. AID 624287, 2012; active = well fitted activation curve with a large enough effect; inconclusive = small, poorly fitted or top-dose-only effect, or another doubt; inactive = no such curve, though single readings can be large or run the other way; cell line not stated here;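 also: phosphodiesterase inhibitor Ro 20-1724 added with compounds to block cAMP breakdown; potency is read from the fitted curve at half-maximal effect; nearly all actives have a fitted effect of over 60% in size; about a fifth of the inactives were tested at one dose only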
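Cells in DMEM/10% FBS with G418 were pretreated with compounds in DMSO plus […] (300 uM stock) for 30 min at 37C. cAMP was measured by HTRF (cAMP-d2 plus anti-cAMP antibody-K) after 30 min at room temperature.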
gsp antagonist – qHTS for Antagonists of gsp, the Etiologic Mutation Responsible for Fibrous Dysplasia/McCune-Albright Syndrome: qHTS. actives 0.4% (n = 340,000). AID 624288, 2012. Potency, µM (top dose mostly 76.9 µM), inactives show at the top dose activity change, negative = inhibition, actives largely listed as inhibitors. gsp-mutant cells, cAMP HTRF, 30 min; control for the full effect not named in the record; active = falling curve of any shape with a large fitted effect; inconclusive = falling curve, mostly with a smaller effect; inactive = flat or rising curve; cell line not stated here;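 also: intracellular cAMP measured with PDE inhibitor Ro 20-1724 present during compound exposure; potency is read from the fitted curve at half-maximal effect; % is scaled to controls: 0 for no effect and ±100 for the full control effect; nearly all actives have a fitted effect of over 65% in size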
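HTRF cAMP measurement after 30 min RT detection following 30 min, 37C compound treatment alongside […] (added as 300 uM solution) in G418-selected cells seeded at 2000/well and grown 16–24 h.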
TRPML1 blocker – qHTS for Inhibitors of the Human Mucolipin Transient Receptor Potential 1 (TRPML1); Mucolipin-1 (Homo sapiens), Q9GZU1; TRPML1-inducible cells, Ca2+ dye fluorescence, FDSS; active compounds read low; inhibition of EC80 agonist-evoked calcium signal; activity change, negative = inhibition, % (concentration not given with the values); actives 0.02% (n = 390,000); AID 624415, 2012; in the data active means activity change below about -50%; inconclusive means about -30% to -50%; inactive means above about -30%;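 also: stimulus is agonist 54-4 at its EC80 concentration; % is scaled to controls: 0 for no effect and ±100 for the full control effect; the text of the record puts the active cut at -80%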
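TRPML1-DL cells, Tet-induced overnight (~16 h, 37 °C) at 1,500 cells/well, were loaded with Ca8 no-wash dye plus quencher for 45-90 min at room temperature. Compounds were pinned during FDSS kinetic reading; agonist 54-4 at EC80 (4 uM final) then added.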
Menin MLL FP FL – qHTS Assay for Inhibitors Targeting the Menin-MLL Interaction in MLL Related Leukemias: Competition With Fluorescein Labeled MLL-derived Peptide. Fluorescence polarization, fluorescein-MLL peptide displacement from menin. FP activity change, % at 61.4 µM. 290,000 tested, under 10 active. AID 1766, 2009; inconclusive = falling polarisation curve, or a change in total fluorescence; inactive = total fluorescence flat and polarisation flat or rising; no compound was filed as active; the % refers to the polarisation; negative = inhibition;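 also: % of control where 0% means no effect; inhibitors lower the polarisation; unlabelled MLL peptide was the positive control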
The depositor's hits bear a star; ? = inconclusive; / = not tested or not shown; & = joins results of further samples; ! = a repeat was not active; [ ] = dose if it differs, or a comment. Hits appear at their usual frequency (roughly 4.9% active in at least one column).

SMILES,Sfp PPTase inh,TRPV1 potentiator,ClpP mod,gsp agonist,gsp antagonist,TRPML1 blocker,Menin MLL FP FL
CCN(CC)C(=O)CSC(Nc1ccc(F)cc1)=C(C#N)C#N,-6%,6,/,-71%[inhibitor],2%,-8,?
CCN(Cc1ccc2c(c1)OCO2)C(=O)CSc1nc(C)nc2sc(C)c(C)c12,/,-4,-1.6%,1%,40µM*,8,/
Cc1ccc(N2CCN(c3ccc(C)cc3)C2c2ccccn2)cc1,-11%,-4,-9.2%,-8%,4%,-2,1.9
Cc1ccc(-c2c(C(=O)N/N=C/c3c[nH]c4ccccc34)nnn2-c2nonc2N)cc1,11%,15,-15%,29%,-12%,-1,7.3
O=C(COC(=O)c1cc(=O)[nH]c2ccccc12)c1ccccc1,7%,-8,1.2%,-5%[15.4 µM],14%,-22,-1.5
c1cc(C2OCCN2CC2COC3(CCCC3)O2)ccn1 (stereo not given),6%,2,-0.2%,6%,12%,0,3.2
CC1=CC(C)(C)N(S(=O)(=O)c2ccc(C)cc2)c2ccccc21,?,-9,-0.3%&-0.6%,-6%,9%,31,7.0
COc1ccc([N+](=O)[O-])c(OC)c1C(=O)NC(=O)Nc1c(F)cc(F)cc1F,11%,5,/,-5%[15.4 µM],4%,8,3.8
COc1ccc(C(CC(=O)O)NC(C)=O)cc1OC (stereo not given),-1%,14,-2.3%,23%,6%,-5,0.7
COc1ccccc1CCN=C(N)NS(=O)(=O)c1ccc(C)c(C)c1,1%,6,-0.4%,16%,4%,3,-4.2
Cc1nnc(NC(=O)CSc2cn(Cc3ccccc3)c3ccccc23)s1,-11%,-7,4.6%,16µM*,-13%,-9,-1.0
COC(=O)CC1=C(C(=O)OC)C(c2ccncc2)C(C#N)=C(N)O1 (stereo not given),20%,-2,-1.7%,2%,-3%,-1,-4.4
O=C(COc1ncnc2ccccc12)Nc1cc(S(=O)(=O)N2CCOCC2)ccc1Cl,14%,13,/,16%[15.4 µM],6%,63,2.2
COc1ccc(NC(=O)COC(=O)c2ccc(-n3nc(C)cc3C)cc2)cc1OC,/,24,-10%,-9%,6%,9,/
Cc1cc(C)n(-c2nnc(N3CCN(c4ccc(F)cc4)CC3)nn2)n1,15%,5,/,-24%,14%,7,1.3
Cn1c(=O)c(C(=O)CSc2nnc(Nc3ccccc3)s2)c(N)n(Cc2ccccc2)c1=O,-10%,10,4.5%,-50%[inhibitor],-27%,4,3.4
COc1cccc(C(=O)NCCSc2c(C)[nH]c3ccccc23)c1OC,-2%,-15,-1.4%,?,-19%,/,-0.6
CCOc1cc(C2Nc3ccccc3NC3=C2C(=O)CC(C)(C)C3)ccc1OC(C)=O (stereo not given),19%,9,0.6%,4%,7%,17,-4.9
CCOC(=O)c1c(/N=C/N(C)C)sc(C)c1C,17%,?,/,-26%,5%,-6,-2.4
CC12CCC(=O)N1C(C(=O)Nc1nc3ccc(F)cc3s1)CS2 (stereo not given),/,14,0.1%,-19%,-14%,17,/
CCC(C)(C)NC(=O)C(c1ccc(OC)cc1)N(C(=O)CCC(=O)Nc1cc(C)on1)c1ccccc1F (stereo not given),13%,-7,/,1%[15.4 µM],/,-7,0.6
C=CCOc1ccc(Br)cc1/C=N/O,17%,12,-2.3%,-4%,-3%,5,2.9
CCOC(=O)N1CCN(C(=O)CSc2ccc(-c3ccccc3)nn2)CC1,2%,-31,-2.0%,-1%[15.4 µM],4%,-28,1.8
N#Cc1cn(Cc2ccccc2)c(=O)[nH]c1=O,13%,5,/,27%,1%,-5,7.2
NS(=O)(=O)c1ccc(CCNC(=O)C2CC(=O)N(Cc3ccccc3Cl)C2)cc1 (stereo not given),/,-25,-2.0%,-14%,5%,-5,/
COCC(C)NC(=O)C1CC(c2cccc(Br)c2)=NO1 (stereo not given),20%,3,-6.0%,16%,19%,5,1.1
CCOC(=O)Cc1csc(NC(=O)/C=C\c2ccccc2Cl)n1,-6%,-13,/,-6%[15.4 µM],-26%,-5,-3.9
Cc1sc2nc(C(C)C)nc(SCC(=O)N3CCOCC3)c2c1C,7%,-17,/,-7%,-10%,8,2.9
CCOc1cc(CNc2ccc(S(N)(=O)=O)cc2)cc(Cl)c1OC,-1%,6,-3.4%,0%,-9%,13,1.8
CCN(C(=O)c1ccc2c(=O)n3c(nc2c1)CCCCC3)c1ccccc1C,1%,-11,-0.9%,6%,-15%,-16,/
CC(C)(C)n1nnnc1C(c1cccs1)N1CCCc2ccccc21 (stereo not given),-9%,-20,-1.3%,8%,-6%,5,4.5
CCOC(=O)c1sc2nc(CC(=O)OC)nc(NCC(=O)OC)c2c1C,-10%,-7,20%,-35%[inhibitor],-7%,0,-1.5
CCOC(=O)c1nn(-c2ccccc2)c(=O)cc1OCC(=O)Nc1cc(C)ccc1OC,/,6,5.8%,-22%,7%,21,/
COc1cc(C2C(C(=O)c3cc4ccccc4o3)=C(O)C(=O)N2CCN2CCOCC2)ccc1OCCC(C)C (stereo not given),-11%,1,-1.2%,?,10%,-2,-0.7
COc1ccccc1N(C)S(=O)(=O)c1ccc(C(=O)OCC(=O)N(C)c2ccccc2)cc1,-15%,3,/,-6%,1%,-7,-3.2
Cc1ccc(NC(=O)CCC(=O)OCC(=O)c2ccc(Oc3ccc([N+](=O)[O-])cc3)cc2)cc1C,17%,-2,-1.0%,-29%,-2%,7,0.3
CC(C(=O)OCC(=O)N1CCCCC1)N1C(=O)c2ccccc2C1=O (stereo not given),/,/,1.3%,-38%[inhibitor],14%,-9,/
Cc1c(C(=O)OCC(=O)NCc2ccco2)oc2ccccc12,/,0,-7.5%,-16%,13%,31,/
COC(=O)c1ccccc1NC(=O)c1ccc(COc2cc(C)cc(C)c2)o1,?,16,20µM*!,-25%,-1%,4&14,-0.8
CC(C)(C)NCCOc1ccc2ccccc2c1,-10%,-1,0.5%,22%,3%,-17,-1.2
COc1ccccc1OCCCCN1CCCCC1,9%,-4,-2.0%,1%,8%,18,0.6
Cc1ccc(NC(N)=S)cc1C,19%,-4,28µM*,-39%[inhibitor],-16%,-1,0.6
Cc1cc(C)nc(NS(=O)(=O)c2ccc(NC(=O)c3cc4c(=O)n5cccc(C)c5nc4n3C)cc2)n1,6%,-5,3.6%,-4%,12%,-5,-6.0
O=C(COc1ncnc2sccc12)Nc1cccc(S(=O)(=O)N2CCCC2)c1,-7%,12,-6.0%,34%,-2%,3,9.3
CC1=NN(c2ccccc2)C(=O)/C1=C/c1cccs1,-20%,5,0.9%,-24%,22%,-11,5.5
CSCC[C@H](NC(=O)OC(C)(C)C)C(=O)N/N=C/c1cc2ccc(C)cc2nc1Cl,-15%,6,0.8%,-36%[inhibitor],-14%,35,6.0
C=CCn1c(-c2csc3c2CCC(C)C3)n[nH]c1=S (stereo not given),6%,0,-0.9%,-14%,16%,-3,2.3
Cn1c(=O)n(C)c2cc(/C=N/NC(=O)c3ccc(Cl)cc3Cl)ccc21,15%,2,-6.1%,2%,-16%,-7,0.2
Cc1ccc(NC2=C(Cl)C(=O)OC2OC(=O)c2ccc(C)cc2)cc1 (stereo not given),-30%,-7,/,43%[15.4 µM],-2%,9,0.1
Cc1c(OCC(=O)NCCCN2CCCC2=O)ccc2c3c(c(=O)oc12)CCCC3,14%,10,3.7%,-12%,9%,-6,/
CC(=O)c1ccc(NC(=O)CSC2=NS(=O)(=O)c3cc(Cl)ccc3N2)cc1,/,6,0.9%,-2%,5%,4,/
O=C(Cn1ncc2c3ccccc3n(Cc3ccccc3)c2c1=O)NC1CCCC1,15%,11,-2.1%,-38%[inhibitor],7%,-5,0.0
O=C(NCc1cnn(-c2ccccc2)c1)C1CCC(=O)N(C2CC2)C1 (stereo not given),16%,7,-1.2%,-13%,6%,18,/
CCOC(=O)C1=C(CC)OC(N)=C(C#N)C1c1ccsc1 (stereo not given),?,-14,0.8%,-7%,5%,-13,1.6

Single records (already shown). Order of values: Sfp PPTase inh | TRPV1 potentiator | ClpP mod | gsp agonist | gsp antagonist | TRPML1 blocker | Menin MLL FP FL
`COC(=O)CC1=C(C(=O)OC)C(c2ccncc2)C(C#N)=C(N)O1` (stereo not given) as listed: 20% | -2 | -1.7% | 2% | -3% | -1 | -4.4
`COc1ccccc1N(C)S(=O)(=O)c1ccc(C(=O)OCC(=O)N(C)c2ccccc2)cc1` as listed: -15% | 3 | / | -6% | 1% | -7 | -3.2
`CCOC(=O)c1sc2nc(CC(=O)OC)nc(NCC(=O)OC)c2c1C` as listed: -10% | -7 | 20% | -35%[inhibitor] | -7% | 0 | -1.5
`Cc1ccc(NC(=O)CCC(=O)OCC(=O)c2ccc(Oc3ccc([N+](=O)[O-])cc3)cc2)cc1C` as listed: 17% | -2 | -1.0% | -29% | -2% | 7 | 0.3
`CCOc1cc(C2Nc3ccccc3NC3=C2C(=O)CC(C)(C)C3)ccc1OC(C)=O` (stereo not given) as listed: 19% | 9 | 0.6% | 4% | 7% | 17 | -4.9
